Bioassay records: PubChem, Broad Institute
Ecoli rRNA inh: inhibitors of bacterial rRNA selective over humanized ribosomes; E. coli WT GFP vs humanized-ribosome RFP mutants, fluorescence, 24 h; stronger effect = lower value; DMSO median 0, no signal -100; GFP signal change (wild-type ribosome), % (concentration not given with the values); 350,000 compounds, 1.6% hits;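 active = significant combined selectivity score with lowered wild-type GFP, culture density cut under 30%, mutant RFP and density less affected; inactive = any of these conditions unmet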; note: one replicate is shown; some compounds called inactive have numbers as strong as hits
Ecoli rRNA inh OD600: also measured in Ecoli rRNA inh; calls as there; OD600 change, %; measured here: OD600 growth;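 optical density of the mix in the first replicate; 0 = DMSO median and -100 = no signal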
Ecoli rRNA inh RFP: further read-out of Ecoli rRNA inh, marked with its call; RFP signal change, %; measured here: RFP humanized mutant strains;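 first replicate; 0 = DMSO median and -100 = no signal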
Active calls of the source: *; & = joins results of further samples. Only part of the results is shown. The share of hits here may be higher or lower than overall.

Each structure is followed by: Ecoli rRNA inh | Ecoli rRNA inh OD600 | Ecoli rRNA inh RFP
> COc1ccc2c(CN3CCN(C(C)=O)CC3)cc(=O)oc2c1
→ 5.8 | 5.2 | -2.4
> CC(C)NC(=O)Nc1ccc2c(c1)C(=O)N([C@H](C)CO)C[C@H](C)[C@H](CN(C)C(=O)Nc1ccc(C(F)(F)F)cc1)OCCCC[C@@H](C)O2
→ 3.5 | 0.1 | -0.5
> C[C@H](CO)N1C[C@H](C)[C@@H](CN(C)S(=O)(=O)c2cccc(F)c2)OCc2cnnn2CCCC1=O
→ 0.5&-0.8 | 1.9&-6.0 | 1.4&2.5
> C[C@@H]1CN([C@H](C)CO)C(=O)c2cc(NS(=O)(=O)c3ccc(Cl)cc3)ccc2O[C@H]1CN(C)C(=O)Nc1ccc2c(c1)OCO2
→ -1.8 | 3.0 | -0.3
> CC(C)CC#Cc1ccc([C@H]2[C@@H](CO)N3C(=O)CN(C(=O)NC4CCCC4)C[C@H]23)cc1
→ 6.7 | 0.7 | -6.1
> CC12C=CC(C)(C3C(=O)NC(=O)C31)C1C3C(=O)NC(=O)C3C12 (stereo unspecified)
→ 8.2 | 17.1 | 0.8
> COC(=O)C[C@H]1CC[C@@H](NC(=O)Nc2cccc(OC)c2)[C@@H](CO)O1
→ 4.6 | 8.5 | -0.7
> O=C(C[C@H]1C=C[C@H](NC(=O)C2CCOCC2)[C@@H](CO)O1)Nc1ccc(-c2ccccc2)cc1
→ -2.5 | -1.9 | 8.3
> COc1ccc(OC(F)(F)F)cc1CC1(C)C(=O)Nc2ccc(-c3ccsc3)cc21 (stereo unspecified)
→ 4.7 | -1.9 | -3.0
> C[C@H]1CCCCO[C@H](CN(C)C(=O)Nc2ccc(C(F)(F)F)cc2)[C@@H](C)CN([C@@H](C)CO)C(=O)c2cc(NC(=O)Nc3ccc(C(F)(F)F)cc3)ccc2O1
→ 0.2 | 2.8 | 0.0
> CCCC(=O)N1CCC1(C)C(=O)NS(=O)(=O)c1ccc(C)cc1 (stereo unspecified)
→ 7.9 | 14.4 | 3.3
> CCS(=O)(=O)Nc1ccc2c(c1)C(=O)N(C)C[C@@H](OC)[C@@H](C)CN(C(=O)C1CCC1)[C@H](C)CO2
→ 2.3 | 2.1 | -3.4
> Cc1noc(C)c1S(=O)(=O)Nc1ccc2c(c1)C(=O)N([C@@H](C)CO)C[C@@H](C)[C@H](CN(C)S(=O)(=O)c1ccccc1)OCCCC[C@@H](C)O2
→ -2.7 | -12.8 | -1.0
> COc1ccc(S(=O)(=O)Nc2cccc3c2O[C@H](CN(C)C(=O)NC2CCCCC2)[C@@H](C)CN([C@@H](C)CO)C3=O)cc1
→ 0.8 | -4.3 | 0.8
> CN(C)c1ccc2c(c1)[C@@H]1C[C@H](CC(=O)N3CCCCC3)O[C@H](CO)[C@@H]1O2
→ 1.4 | 3.2 | 0.7
> CC(C)CC1C(=O)N(Cc2cn(CCC3OCCCO3)nn2)CCS(=O)(=O)N1Cc1ccc(-c2cccc(CO)c2)cc1 (stereo unspecified)
→ -13.0 | -19.9 | 3.0
> COc1ccc(S(=O)(=O)N(C)C[C@@H]2OCCCC[C@H](C)Oc3ccc(NS(=O)(=O)c4c(C)noc4C)cc3C(=O)N([C@@H](C)CO)C[C@H]2C)cc1
→ 0.3 | -3.1 | 1.8
> COc1ccc(S(=O)(=O)N(C)C[C@@H]2Oc3ccc(NC(=O)Cn4cnnn4)cc3C(=O)N([C@H](C)CO)C[C@H]2C)cc1
→ 0.2 | -2.0 | -1.2
> CCCNC(=O)N[C@H]1CC[C@H](CCn2cc(C3CCCC3)nn2)O[C@H]1CO
→ 3.0 | 11.6 | -1.7
> CC1(Cc2ccc(Cl)cc2)C(=O)Nc2ccc(-c3cccnc3)cc21 (stereo unspecified)
→ -31.2 | -47.0 | -12.4
> COc1ccc(NC(=O)N(C)C[C@@H]2OCCCC[C@@H](C)Oc3ccc(NS(=O)(=O)c4cn(C)cn4)cc3C(=O)N([C@H](C)CO)C[C@@H]2C)cc1
→ 3.7 | 10.0 | -0.1
> Cc1ccc(S(=O)(=O)N(C)C[C@@H]2OCCCC[C@@H](C)Oc3ccc(NS(C)(=O)=O)cc3C(=O)N([C@@H](C)CO)C[C@@H]2C)cc1
→ 0.3 | 2.9 | 4.1
> CCCNC(=O)N1[C@@H]2c3ccc(-c4ccccc4OC)c(=O)n3C[C@H]1[C@H](CO)[C@H]2C(=O)NCC
→ -4.5 | -11.2 | -3.5
> O=C(Cc1ccccn1)N[C@H]1CC[C@@H](CCn2cc(-c3cccnc3)nn2)O[C@H]1CO
→ -3.8 | -9.7 | -0.7
> CCCNC(=O)C[C@H]1CC[C@H]2[C@H](COc3ccc(NC(=O)NC(C)C)cc3C(=O)N2C)O1
→ 0.6 | 1.1 | -1.1
> COCC(=O)Nc1ccc2c(c1)OC[C@@H](C)N(C(=O)c1ccccn1)C[C@H](C)[C@@H](OC)CN(C)C2=O
→ 1.8 | 3.1 | -1.1
> O=C(C[C@@H]1C[C@@H]2c3cc(NC(=O)C4CCOCC4)ccc3O[C@@H]2[C@@H](CO)O1)NCCc1ccccc1
→ 0.0 | 1.1 | -1.0
> C[C@H](CO)N1C[C@H](C)[C@H](CN(C)C(=O)c2ccncc2)OCCCC[C@H](C)Oc2ccc(NS(=O)(=O)c3ccc(Cl)cc3)cc2C1=O
→ -2.8 | -1.4 | 1.1
> CC(C)C#Cc1cnc2c(c1)C(=O)N([C@@H](C)CO)C[C@@H](C)[C@H](CN(C)C(=O)c1cnccn1)O2
→ 1.9 | 3.9 | -1.1
> O=C(C[C@H]1CC[C@H]2[C@@H](COC[C@H](O)CN2CCC(F)(F)F)O1)NCC1CC1
→ 0.2 | 2.1 | 2.4

Part of the list above, with the structure last.
| Ecoli rRNA inh | Ecoli rRNA inh OD600 | Ecoli rRNA inh RFP | canonical_smiles |
| --- | --- | --- | --- |
| -31.2 | -47.0 | -12.4 | CC1(Cc2ccc(Cl)cc2)C(=O)Nc2ccc(-c3cccnc3)cc21 (stereo unspecified) |
| 3.7 | 10.0 | -0.1 | COc1ccc(NC(=O)N(C)C[C@@H]2OCCCC[C@@H](C)Oc3ccc(NS(=O)(=O)c4cn(C)cn4)cc3C(=O)N([C@H](C)CO)C[C@@H]2C)cc1 |

(list continues)
Each structure is followed by: Ecoli rRNA inh | Ecoli rRNA inh OD600 | Ecoli rRNA inh RFP
> Cc1ccc(S(=O)(=O)Nc2ccc3c(c2)CC(=O)N([C@H](C)CO)C[C@@H](C)[C@@H](CN(C)Cc2ccc(C(F)(F)F)cc2)O3)cc1
→ -3.3 | 11.2 | -2.2
> COC(=O)[C@]12C[C@H](CC(=O)NCc3ccccc3)C(=O)N(Cc3ccccc3)C1=C[C@H](C(C)C)O[C@@H]2C1CC1
→ 2.1 | -19.9 | -1.8
> CCNC(=O)C1(C)CCN(C(=O)c2cccc(Cl)c2)C1 (stereo unspecified)
→ 8.6 | 10.1 | -1.3
> COCC(=O)N1[C@H](C#N)[C@H](c2ccccc2)[C@H]1CO
→ 6.2 | 15.2 | 2.3
> CCC(=O)N1C[C@H](C)[C@H](OC)CN(C)C(=O)c2cc(NC(=O)Nc3ccc(Cl)cc3)ccc2OC[C@@H]1C
→ -8.0 | -30.1 | 5.7
> C[C@H]1CN([C@@H](C)CO)C(=O)Cc2cc(NS(=O)(=O)c3ccc(Cl)cc3)ccc2O[C@H]1CN(C)C(=O)Nc1ccccc1
→ 1.6 | 1.4 | 1.2
> COc1ccccc1-c1ccc2n(c1=O)C[C@H]1[C@H](CO)[C@@H](C(=O)N3CCCCC3)[C@@H]2N1CC1CC1
→ 2.6 | 1.9 | -2.6
> COc1ccc2c3c([nH]c2c1)[C@@H](CO)N(Cc1ccncc1)CC31CN(CC2CCOCC2)C1
→ 7.2 | 15.1 | -0.7
> O=C(C[C@H]1CC[C@@H]2[C@H](COC[C@H](O)CN2S(=O)(=O)c2cccc(Cl)c2)O1)NCCCN1CCOCC1
→ 1.0 | -4.8 | 0.1
> COc1ccccc1NC(=O)N[C@H]1CC[C@H](CCNS(=O)(=O)c2ccc(C)cc2)O[C@@H]1CO
→ -7.0 | -11.6 | 1.7
> CC(C)NC(=O)N(C)C[C@H]1Oc2ccc(NC(=O)c3ccncc3)cc2CC(=O)N([C@H](C)CO)C[C@H]1C
→ 6.8 | 11.1 | -0.2
> COc1ccc(CN(C)C[C@@H]2OCCCC[C@@H](C)Oc3ccc(NC(=O)CCC(F)(F)F)cc3C(=O)N([C@H](C)CO)C[C@@H]2C)cc1
→ 3.5 | 4.9 | -0.7
> COCC(=O)N(C)C[C@H]1Oc2ncc(/C=C/c3ccccc3)cc2C(=O)N([C@@H](C)CO)C[C@H]1C
→ 2.0 | 0.6 | -1.9
> N#C[C@@H]1[C@@H](c2ccccc2)[C@@H](CO)N1C(=O)c1ccccc1F
→ -3.7 | -1.1 | -1.4
> CCNC(=O)Nc1ccc2c(c1)C(=O)N(C)[C@@H]1CC[C@@H](CC(=O)NCC3CC3)O[C@H]1CO2
→ -1.1 | 6.5 | -0.4
> CCNC(=O)C1(C)CCCN(C(=O)c2ccc(OC)c(F)c2)C1 (stereo unspecified)
→ 5.6 | 14.7 | 2.0
> CN(C)CC(=O)N[C@H]1CC[C@@H](CC(=O)NCCN2CCCCC2)O[C@H]1CO
→ 1.7 | 6.4 | -1.3
> CC(C)(C)Cc1c(-c2cccc(Cl)c2)nc2ccc(Br)cn12
→ -8.7 | -0.8 | 10.3
> COc1ccccc1-c1ccc2c(c1)C(C)(Cc1cc(Cl)ccc1C(F)(F)F)C(=O)N2 (stereo unspecified)
→ 12.2 | 12.3 | 5.1
> O=S(=O)(CS(=O)(=O)c1ccc(Br)cc1)c1ccc(Br)cc1
→ -12.8 | -11.9 | 2.7
> Cc1ccc(S(=O)(=O)N2Cc3ccccc3CC2C(=O)N(C)C)cc1 (stereo unspecified)
→ 1.6 | -1.9 | 0.3
> COc1cccc(CNC(=O)[C@H]2CCCN2C(=O)[C@H]2CCCN2C(=O)c2ccc(F)cc2F)c1
→ 6.7 | 6.6 | -0.2
> CO[C@H]1CC[C@H]2CCN(C)C(=O)[C@H](C)[C@H](OC)CN(C)C(=O)c3cccc(C#N)c3OC[C@@H]1O2
→ 0.6 | -4.4 | -0.3
> C[C@H]1CN([C@@H](C)CO)C(=O)c2cccc(NC(=O)NC3CCCCC3)c2O[C@@H]1CN(C)S(C)(=O)=O
→ -0.3 | 0.4 | 0.6
> C[C@H]1CN([C@@H](C)CO)C(=O)Cc2cc(NS(=O)(=O)c3cccs3)ccc2O[C@H]1CN(C)C(=O)Nc1ccc(C(F)(F)F)cc1
→ 2.5 | 0.1 | -1.7
> COc1ccc(S(=O)(=O)N(C)C[C@@H]2OCCCC[C@H](C)Oc3ccc(NC(=O)CCC(F)(F)F)cc3C(=O)N([C@H](C)CO)C[C@H]2C)cc1
→ 0.2 | 6.5 | 9.4
> O=C(Nc1cc(F)ccc1F)N1CC(=O)N2[C@H](C1)[C@H](c1ccc(-c3ccc(F)cc3)cc1)[C@@H]2CO
→ -2.0 | -38.0 | 24.7
> CCCCCCn1cc(CN2CC(N3CCN(CCN(C)C)CC3)CS2(=O)=O)nn1 (stereo unspecified)
→ 18.1 | 7.7 | 1.3
> COc1ccccc1-c1ncn(Cc2cccc(-c3ccccc3)c2)c1-c1ccco1
→ -3.5 | -0.5 | -0.1
> CC(C)c1[nH]nc2c1C(c1ccc(Br)cc1)NC2=O (stereo unspecified)
→ 0.7 | 11.5 | 3.0
> C[C@@H]1CCCCO[C@@H](CN(C)C(=O)Nc2ccccc2)[C@@H](C)CN([C@H](C)CO)C(=O)c2cc(NC(=O)Nc3ccc(C(F)(F)F)cc3)ccc2O1
→ 4.1 | 14.5 | -1.0
> O=C(c1cccc(F)c1)N1C[C@H]2[C@@H](c3ccccc31)[C@@H](CO)N2C(=O)C1CCOCC1
→ 0.7 | 15.2 | -3.0
> OC(c1ccc(F)cc1)c1nc(-c2cccs2)cs1 (stereo unspecified)
→ -14.2 | -19.6 | -12.4
> Cc1cc(C(=O)Nc2cccc3c2O[C@H](CN(C)Cc2ccc(C(F)(F)F)cc2)[C@@H](C)CN([C@@H](C)CO)C3=O)n(C)n1
→ -2.7 | -5.5 | -2.4
> C[C@H](CO)N1C[C@H](C)[C@H](CN(C)S(=O)(=O)c2ccccc2)Oc2ccc(NC(=O)Nc3ccc(C(F)(F)F)cc3)cc2C1=O
→ 3.2 | -0.7 | 0.4
> COc1ccc(S(=O)(=O)N(C)C[C@H]2Oc3ccc(NC(=O)CCCCCC(=O)Nc4ccccc4N)cc3CC(=O)N([C@H](C)CO)C[C@H]2C)cc1
→ -4.6 | 0.2 | -1.6
> CN1CCN(C(=O)C[C@H]2CC[C@@H]3[C@H](COC[C@H](O)CN3S(=O)(=O)c3cccc(F)c3)O2)CC1
→ 7.2 | 16.5 | -0.2
> CCC(=O)N1C[C@H](C)[C@H](OC)CN(C)C(=O)c2cc(NC(=O)c3ccc(F)cc3)ccc2OC[C@H]1C
→ -2.1 | -9.4 | -0.8
> O=C1NCCOCn2nncc2CC[C@H]1Cc1ccccc1
→ 2.9 | 16.2 | 1.8
> CN(C[C@H]1N[C@H](CO)[C@@H]1c1ccc(-c2cccnc2)cc1)C(=O)NC1CCCC1
→ -1.5 | -3.0 | 0.0
> O=C(C1CCC1)N1CCCCN2[C@H](C1)[C@@H](c1ccc(C#CC3(O)CCCC3)cc1)[C@@H]2CO
→ -0.1 | -15.8 | -1.7
> C[C@H]1CN([C@@H](C)CO)C(=O)c2c(c3ccccc3n2C)-c2ccccc2CO[C@@H]1CN(C)C(=O)c1ccncc1
→ 2.1 | 6.6 | -1.0
